Assay outcomes (PubChem)
hNpr1 antagonist = human Npr1 receptor antagonism; P16066; HEK293 hNpr1 GloSensor cGMP, ANP-stimulated luminescence; Potency, µM (doses to about 46.3 µM), inactives show top-dose activity change, negative = inhibition, most hits filed as inhibitors; 1.6% of 76,000 active; AID 1347048; active = well fitted inhibition curve with a large enough effect; inconclusive = small, poorly fitted or top-dose-only effect; inactive = no such curve, though single readings can be large or run the other way;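 further: nearly all actives have a fitted effect of over 60% in size; nearly all hits also lower the signal before the agonist is added; a reference antagonist and vehicle were the controls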
Target sequence (P16066 whole entry, looked up): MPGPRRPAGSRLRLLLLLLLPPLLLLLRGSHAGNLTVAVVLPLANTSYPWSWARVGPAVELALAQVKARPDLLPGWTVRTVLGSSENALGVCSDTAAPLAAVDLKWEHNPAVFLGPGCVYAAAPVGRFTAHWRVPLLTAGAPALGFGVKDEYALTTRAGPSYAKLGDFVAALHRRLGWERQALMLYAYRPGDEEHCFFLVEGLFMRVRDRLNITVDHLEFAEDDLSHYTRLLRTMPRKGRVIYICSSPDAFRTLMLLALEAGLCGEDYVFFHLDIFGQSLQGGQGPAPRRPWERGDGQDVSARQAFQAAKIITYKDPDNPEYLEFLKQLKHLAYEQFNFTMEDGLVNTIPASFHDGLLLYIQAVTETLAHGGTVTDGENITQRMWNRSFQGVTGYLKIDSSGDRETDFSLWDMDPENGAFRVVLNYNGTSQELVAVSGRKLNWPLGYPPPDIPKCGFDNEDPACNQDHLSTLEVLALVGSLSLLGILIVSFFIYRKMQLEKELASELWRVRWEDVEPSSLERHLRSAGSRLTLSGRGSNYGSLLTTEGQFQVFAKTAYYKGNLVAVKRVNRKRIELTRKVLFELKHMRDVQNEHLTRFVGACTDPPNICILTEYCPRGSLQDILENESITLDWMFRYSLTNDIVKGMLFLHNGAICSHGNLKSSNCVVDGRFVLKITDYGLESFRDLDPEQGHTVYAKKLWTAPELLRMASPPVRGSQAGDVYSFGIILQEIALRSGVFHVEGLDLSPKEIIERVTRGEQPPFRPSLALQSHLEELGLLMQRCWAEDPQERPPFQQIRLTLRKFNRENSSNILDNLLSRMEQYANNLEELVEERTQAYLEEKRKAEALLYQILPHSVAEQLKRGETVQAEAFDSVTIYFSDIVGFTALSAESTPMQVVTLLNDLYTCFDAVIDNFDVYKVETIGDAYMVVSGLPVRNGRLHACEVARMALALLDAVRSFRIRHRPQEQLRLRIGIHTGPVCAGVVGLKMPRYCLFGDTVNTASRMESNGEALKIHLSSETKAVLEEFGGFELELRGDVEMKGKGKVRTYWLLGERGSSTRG
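HEK293 cells stably expressing human Npr1 and cGMP GloSensor pGS-40F, loaded 2 h with 2% GloSensor reagent, given compound 30 min at room temperature. Luminescence read before and 20 min after 0.1 nM hNppA.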
Active calls of the source: *; ? = inconclusive; [ ] = remark or other dose. On the % scale 0 is the no-effect control and ±100 the full control effect; potency means the concentration at half of the fitted maximal effect. Some of the compounds tested; the hit share may differ from the screen's.

SMILES | hNpr1 antagonist
COc1ccc(CN2C[C@@H]3C(=O)N(Cc4ccc5c(c4)OCO5)C(=O)[C@@H]3C2)cc1OC | 14µM*
C=CCC1(CO)CCCN(C(=O)CCN(C)S(C)(=O)=O)C1 (stereo unspecified) | 19%
COC(=O)[C@@H]1Cc2c[nH]c3cccc(c23)[C@H](CC(C)C)N1 | 6%[70.6 µM]
Cn1c(CNC(=O)c2cc3c(s2)CN(C2CC2)C3)nc2ccccc21 | -9%
COc1ccc(C2=NOC3(CCN(Cc4ccc(N(C)C)cc4)C3)C2)cc1 (stereo unspecified) | -19%
COCC(=O)Nc1cccc(C(=O)N(Cc2ccsc2)CC(C)C)c1 | 2%
O=C(NCc1cc2n(n1)CCN(C1CCCCC1)C2)c1noc2c1CCCC2 | 5%
Cc1noc([C@@H]2CN(C(=O)Cc3ccc(Cl)cc3)C[C@H]2C(N)=O)n1 | 1%
CNC(=O)c1ccc(C2CCCN2C(=O)CCc2cc3n(n2)CCCNC3)s1 (stereo unspecified) | 0%
CCN1CCC(N2CCC3(CC2)CC2C(=O)N(CC)C(=O)N2C3)CC1 (stereo unspecified) | -4%
Cc1cnc(CC2CCN(C(=O)COc3ccc(F)cc3)CC2)n1Cc1ccc(F)cc1 | 2%
NC(=O)c1cc[nH]c1C1CCCN(C2CCN(CCc3ccccc3)CC2)C1 (stereo unspecified) | 5%
COC[C@H](C)NC(=O)c1cn2cc(-c3ccc(OC)cc3F)n(C)c(=O)c2n1 | 4%
CC(C)C[C@@H]1N[C@H](C(=O)NCc2ccccc2Cl)Cc2c[nH]c3cccc1c23 | -20%[70.6 µM]
OCC1(CCCc2ccccc2)CCCNC1 (stereo unspecified) | 2%
COc1ccc(N2CCN(C(=O)Cn3c(-c4ccc(F)cc4)nc(C)cc3=O)CC2)cc1 | -7%
c1ccc(C(CNc2nccc(-c3ccncc3)n2)N2CCOCC2)nc1 (stereo unspecified) | -12%
Cc1cc(C(=O)N2CCC(C(=O)N3CCCCCCNC(=O)CC3)CC2)n(C)n1 | -2%
CNC(=O)[C@@H]1C[C@H](n2cc(CN(C)C(=O)Nc3ccc(C)c(C)c3)nn2)CN1 | -1%
O=C([C@@H]1C[C@H](F)CN1C(=O)c1ccccc1OC(F)(F)F)N1CCCCC1 | 5%
Cc1nn2c(c1-c1ccccc1Oc1ccccc1)N(C(=O)C1CCC1)CCC2 | -5%[70.6 µM]
CC(C)(Oc1nn(CC2CCOCC2)c2ccccc12)C(=O)NCc1ccncc1 | 0%[70.6 µM]
CCCNC(=O)[C@@H]1Cc2cn(Cc3nccn3C)c3cccc(c23)[C@H](CC(C)C)N1 | -2%[70.6 µM]
O=C(Cc1ccc(Cl)cc1)N1C[C@@H](CO)[C@H](c2ccccn2)C1 | -16%

Part of the list above, set out differently.
c1ccc(C(CNc2nccc(-c3ccncc3)n2)N2CCOCC2)nc1 (stereo unspecified)
  hNpr1 antagonist: -12%

O=C(Cc1ccc(Cl)cc1)N1C[C@@H](CO)[C@H](c2ccccn2)C1
  hNpr1 antagonist: -16%

COc1ccc(N2CCN(C(=O)Cn3c(-c4ccc(F)cc4)nc(C)cc3=O)CC2)cc1
  hNpr1 antagonist: -7%

Cc1cc(C(=O)N2CCC(C(=O)N3CCCCCCNC(=O)CC3)CC2)n(C)n1
  hNpr1 antagonist: -2%

Carrying on:
SMILES | hNpr1 antagonist
Cc1cccc(C(C)(C)C)c1NC(=O)N1CCN2C(=O)CNC(=O)C2C1 (stereo unspecified) | 1%
CCc1noc(-c2ccn3c(CNC(=O)c4cc(F)ccc4Cl)nnc3c2)n1 | 18%
Cc1cnc(C)n1C1CCN(S(=O)(=O)c2ccccc2)CC1 | -28%
Cc1ccc(C(=O)N2CCC(N3CCCC(C(=O)N4CCCC4)C3)CC2)s1 (stereo unspecified) | 4%
COC[C@H]1CCCN1C(=O)CC[C@@H]1CNC(=O)[C@@H]2C[C@H](NC(=O)Nc3ccc(F)cc3F)CN12 | -2%
O=C(c1ccccn1)N1CCCn2cc(-c3ccccc3)nc21 | 4%
O=C(Nc1ccc(F)cc1F)N1C[C@@H](F)[C@@H](OCc2nc3ccccc3[nH]2)C1 | -2%[70.6 µM]
CC(C(=O)N1CCCN(C)c2ccccc21)c1ccccc1 (stereo unspecified) | 1%
Cc1noc2c(N(C)C)cc(-c3cccs3)nc12 | -8%[70.6 µM]
NC(=O)c1cccc(-c2ncc3c(n2)OCCN(c2cccc(C(F)(F)F)c2)C3=O)c1 | -1%[70.6 µM]
C[C@@H](NC(=O)C1=C[C@@H](NC(=O)Nc2ccc(F)cc2F)[C@@H](O)[C@H](O)C1)C(N)=O | 6%[70.6 µM]
COCCOc1ncccc1-c1noc([C@@H]2CCCN2Cc2ccc(OC)cc2O)n1 | 0%[70.6 µM]
O=C1CO[C@H](c2ccc(NC(=O)C3CCOCC3)cc2)[C@@H](CO)N1 | 2%[70.6 µM]
COC(=O)[C@@H]1Cc2ncn(C)c2CN1C(=O)c1ccccc1C(=O)O | 3%[70.6 µM]
O=C1N(C2CCCCC2)C[C@H]2CN(Cc3cccc(Cl)c3)CCN12 | 0%[70.6 µM]
CCCc1noc(-c2cccn3c(CNC(=O)Cc4ccccc4OC)nnc23)n1 | 2%
N#Cc1ccc(C(=O)N2CCCCCNC(=O)CC2c2ccccc2)cc1 (stereo unspecified) | -1%
Cc1nc2scc(CC(=O)NCCC(C)C)n2c(=O)c1-c1cc(C)n(-c2cc(F)ccc2F)n1 | 0%
COCC1(CNS(=O)(=O)c2ccc(Cl)cc2)C[C@@H](O)[C@@H](O)C1 (stereo partly specified) | 8%[70.6 µM]
NCCc1ccc(CN2CCC3(CC2)OCCCC3O)cc1 (stereo unspecified) | 0%
CNC(=O)Cn1nc(C(=O)N2CCC3(CC2)[C@H](O)C[C@@H]3O)cc1C | -2%
Cc1cn2nc(C(=O)N3CCC(NC(=O)c4ccc(Cl)cc4)CC3)cc2c(=O)[nH]1 | -8%
c1ccc(-c2nc(CC3CCCNC3)no2)cc1 (stereo unspecified) | 8%
Cc1nc(C2(C)CCN(S(=O)(=O)c3c(C)noc3C)CC2)no1 | -2%
O=C(NC1(CN2CCOCC2)CCCC1)c1ccc(C2CCCNC2)cc1 (stereo unspecified) | 3%
COc1ccc(C(=O)N2CCC(Oc3ncccc3C(=O)N3CCCCC3)C2)c(OC)c1 (stereo unspecified) | -3%
COc1cccc(-c2cc(C(=O)NCc3nc(-c4ccccc4)n[nH]3)[nH]n2)c1 | 2%
Cc1ccc2nc3n(c2c1)[C@@H](CNC(=O)c1ccc(C#N)cc1)COC3 | 0%[70.6 µM]
O=C(NC1CC(=O)N(CCc2ccc(F)cc2)C1)C1CCCCC1 (stereo unspecified) | 0%
CCNC(=O)c1cc2n(n1)CC(c1ccc(Br)cc1)OC2 (stereo unspecified) | -18%
COc1ccc(NC(=O)c2cc3n(n2)CC(c2ccc(Cl)cc2)OC3)cc1Cl (stereo unspecified) | ?
Cc1ccc2oc([C@H]3CCN(Cc4cccs4)C3)nc2c1 | -23%[70.6 µM]
CC(C)c1noc(-c2cn(C3CCCN(C(=O)c4ccc(F)cc4)C3)nn2)n1 (stereo unspecified) | 4%
Cc1ccc(C(=O)N2CCC(CCC(=O)NC3CCCCC3)CC2)cc1 | -10%
COc1ccc(CC(=O)NC(C)C(=O)N2CCN(c3ccccn3)CC2)cc1Cl (stereo unspecified) | 3%
CN(Cc1cccnc1)c1nc2c(c(=O)[nH]1)CCN(Cc1ccc(F)cc1Cl)CC2 | -15%
CCCCc1nc2cc(C(=O)NCCNc3nc(C)cc(=O)[nH]3)ccc2o1 | 2%
O=C(O)C1(Oc2cccc(F)c2)CCN(Cc2ccc(CO)o2)CC1 | 3%
CCNC(=O)[C@@H]1C[C@H](NC(=O)CCc2ccccc2F)CN1C1CCCC1 | -1%
CCN1CCC(N2CCC3(CC2)CN(c2ccncn2)CC3CO)CC1 (stereo unspecified) | -4%
CCc1noc(-c2cn(C3CCN(C(=O)c4cc(F)cc(F)c4)CC3)nn2)n1 | 1%
COc1cc(=O)n2c(c1C(=O)N1CCN(c3cccc(C)c3)CC1)CCCC2 | 1%
COc1ccccc1C(=O)NC[C@@H]1C=C(C)[C@H](CC(=O)NCc2ccccn2)C[C@H]1C(C)C | -19%
Cc1ccc(OCC(=O)N2CCC(Cc3nc(-c4ccc(F)cc4)no3)CC2)cc1 | 7.9µM*
O=C1NC(C(=O)NCc2cccnc2Oc2ccccc2F)CO1 (stereo unspecified) | 4%
O=C(NCCC1CCN(C(=O)Nc2ccc(F)cc2)CC1)c1ccc(F)cc1 | -1%
COc1cccc(CC(=O)NCCC2CCN(C(=O)Nc3cc(F)cc(F)c3)CC2)c1 | 4%
COc1ccc(CN2C=C(C(=O)OCc3noc(-c4cccc(F)c4)n3)C(C)=NS2(=O)=O)cc1 | 0%

Ordered by length of the SMILES (high to low): some entries from above
SMILES | hNpr1 antagonist
COc1ccc(CN2C=C(C(=O)OCc3noc(-c4cccc(F)c4)n3)C(C)=NS2(=O)=O)cc1 | 0%
COc1cccc(CC(=O)NCCC2CCN(C(=O)Nc3cc(F)cc(F)c3)CC2)c1 | 4%
CCc1noc(-c2cn(C3CCN(C(=O)c4cc(F)cc(F)c4)CC3)nn2)n1 | 1%
COc1cc(=O)n2c(c1C(=O)N1CCN(c3cccc(C)c3)CC1)CCCC2 | 1%
O=C1NC(C(=O)NCc2cccnc2Oc2ccccc2F)CO1 (stereo unspecified) | 4%

(cont.)
SMILES | hNpr1 antagonist
CN(C)C(=O)c1cccnc1OC1CCN(C(=O)c2ccc(Br)o2)C1 (stereo unspecified) | 5%
Cc1ccc(C(=O)N2CCCCCCNC(=O)[C@@H]3CCC[C@@H]32)cn1 | 1%
N#Cc1cccc(-c2c(-c3ccccc3)ncn2CCCN2CCC(O)CC2)c1 | 3%
CC(C)c1ccc(CNC(=O)c2noc(-c3ccc4c(c3)OCO4)n2)cc1 | -5%
CCc1ccc(NC(=O)Cn2nc3c(cc2=O)CN(C(C)=O)CC3)cc1 | -2%
Cc1nc(-c2c3n(c(=O)n(CC(=O)Nc4c(C)cccc4C)c2=O)CCCC3)no1 | 7%
Cc1cccc(C(=O)N2CCN(C3CCN(C)C3=O)CC2)c1 (stereo unspecified) | 2%
COCCN1CCCN(C(=O)C2CCC2)c2ccccc21 | -9%
C[C@H]1[C@@H]2[C@@H](O)C([C@H](C)C(=O)NCc3ccccn3)CC[C@@]2(C)CC[C@@H]1NC(=O)c1ccc(C#N)cc1 (stereo partly specified) | 8%
CCn1cc(CN2CCN(C(=O)c3ccc4[nH]ccc4c3)CC2)ccc1=O | -1%
CN(C)C(=O)N1CCC(C(=O)N2CC(=O)N(C3CCCCC3)CC(OCc3ccncc3)C2)CC1 (stereo unspecified) | 2%
NC(=O)c1cc[nH]c1C1CCCN(C(=O)COc2ccc(F)cc2)C1 (stereo unspecified) | 0%
CC1(C(=O)NC2CCOCC2)CCCc2cnc(NCc3ccccc3)nc21 (stereo unspecified) | 0%[70.6 µM]
O=C(C[C@@H]1C[C@H]2O[C@H](CNC3CCCCC3)[C@@H](O)[C@H]2O1)N1CCOCC1 | 4%[70.6 µM]
CC1CCC2(CC1)OCC(C(=O)NC(C)c1ccccc1)N2C(=O)c1cccc(Cl)c1 (stereo unspecified) | -1%
C[C@H]1[C@@H]2[C@@H](O)C([C@H](C)C(=O)NCCN3CCOCC3)CC[C@@]2(C)CC[C@@H]1NC(=O)c1ccccc1 (stereo partly specified) | 5%
O=C(CC1=C2CCCCC2N(Cc2ccc(F)cc2)C1=O)Nc1ccc(F)cc1 (stereo unspecified) | ?
CCc1cc(=O)n(CC(=O)NCCc2ccc(Cl)cc2)c(N2CCOCC2)n1 | -14%
CCc1ccccc1NC(=O)Cn1c(C)cc2nc3n(c(=O)c21)CCCC3 | 0%
O=C(c1cccnc1)N1CCCCC1c1noc(COc2ccc(F)cc2)n1 (stereo unspecified) | 0%
Cc1ccccc1CN1Cc2nc(-c3cnn(C)c3)ccc2OCC1=O | 4%[70.6 µM]
CCn1c(CC2CCN(Cc3ccccc3C#N)CC2)nn(C)c1=O | -3%
Cc1ccccc1CN1CCc2nc(C(=O)NCCOc3ccccc3)oc2CC1 | -25%[70.6 µM]
O=C(NC1CCCN(c2cc(-c3ccc(F)cc3)[nH]n2)C1)c1ccc2cc[nH]c2c1 (stereo unspecified) | -22%

Taken from above:
Entry for `CCc1cc(=O)n(CC(=O)NCCc2ccc(Cl)cc2)c(N2CCOCC2)n1` in hNpr1 antagonist: -14%
Entry for `Cc1ccccc1CN1CCc2nc(C(=O)NCCOc3ccccc3)oc2CC1` in hNpr1 antagonist: -25%[70.6 µM]

The listing continues:
SMILES | hNpr1 antagonist
CCn1c(CO)nnc1C1CC(NC(=O)c2scc3c2CCCC3)C1 (stereo unspecified) | -6%
COc1ccc(N2CCN(C(=O)CN3CC4CC(C3)[C@H]3CCCC(=O)N3C4)CC2)cc1 (stereo partly specified) | 3%
CC#CCn1cc2c3c(cccc31)[C@H](CC(C)C)N[C@H](C(=O)N1CCN(C)CC1)C2 | 2%[70.6 µM]
Cc1ccc(C)c(NC(=O)N2CCC(n3cnnc3C3CC3)C2)c1 (stereo unspecified) | 0%
COC[C@@H]1CN(Cc2ccc(Br)o2)C[C@H]1C(=O)NC1CC1 | -15%
Cc1cc(CNC(=O)c2cccc(F)c2F)c2[nH]c(C)c(C)c2c1 | 5%
CC1CCCC2(C1)OCC(C(=O)NCc1ccccc1)N2C(=O)c1ccccc1F (stereo unspecified) | 1%
Cc1ccc(C(=O)N2CCCCCCn3c(nnc3-c3ccc(F)cc3)CC2)cn1 | -1%

In the list so far, these contain bromine.
SMILES | hNpr1 antagonist
CCNC(=O)c1cc2n(n1)CC(c1ccc(Br)cc1)OC2 (stereo unspecified) | -18%
CN(C)C(=O)c1cccnc1OC1CCN(C(=O)c2ccc(Br)o2)C1 (stereo unspecified) | 5%
COC[C@@H]1CN(Cc2ccc(Br)o2)C[C@H]1C(=O)NC1CC1 | -15%
